# Screens deposited in PubChem BioAssay by ICCB-Longwood Screening Facility, Harvard Medical School.
# AID504770: growth inhibition of E. coli YBA685, primary screen, V. cholerae RctB inhibitors; E. coli YBA685 rctB-dependent plasmid, OD600 growth, 3 h; hits give low values; z-score (test concentration not listed); hit rate 0.27% among 130,000;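 active = z-score under -2 on both plates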;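 also: wells of about 30 µL received 100 nL stock; score is relative to mean and SD of the test wells; the first replicate is given; strong numbers were not always called active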
# Ba CapD inh: Bacillus anthracis CapD inhibitors, primary screen, biochemical, fluorescence intensity; CapD gamma-glutamyltranspeptidase (Bacillus anthracis Ames Ancestor); purified CapD enzyme, fluorescence intensity read-out; hits give low values; some hits fall short of the stated cut; z-score (test concentration not listed); hit rate 0.23% among 140,000;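 active = z-score under -4 in either of two replicates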;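 also: stock transfer was 100 nL into about 40 µL; score is relative to mean and spread of the plate; one replicate is shown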
# * hit, by the source's call; nt = not tested or not shown. An unsorted share of the library; any-hit rate near 0.39%.
SMILES,AID504770,Ba CapD inh
C=CCNC(=O)c1cnn(-c2nc(-c3ccccc3)cs2)c1C(F)(F)F,nt,3.7
CCCc1cc(C(=O)Nc2sc3c(c2C#N)CCC(C(C)(C)C)C3)no1 (configuration not stated),1.1,0.62
Fc1ccc(C(OCCN2CCN(CCCc3ccccc3)CC2)c2ccc(F)cc2)cc1,nt,-0.4
S=c1[nH]nc(-c2ccco2)n1Cc1ccccc1,0.25,9
Cc1ccc(N=Cc2c[nH]c3ccccc23)c(C)c1,-0.55,-0.78
O=C(NNc1c(Cl)cncc1Cl)Nc1ccc(Cl)cc1,nt,-0.44
O=C1N/C(=N\c2ccccn2)SC1Cc1ccc(F)cc1 (configuration not stated),nt,-0.045
c1cc(CNC2CCCCCC2)cs1,0.1,nt
O=C(O)CCC(=O)Nc1sc2c(c1C(=O)Nc1ccccc1)CCC2,nt,-0.32
Oc1c(N=Nc2ccc(Cl)c(Cl)c2)c2ccccc2n1-c1ccccc1,nt,0.49
Cn1nc(C(F)(F)F)c(CNc2ccc(Cl)cc2)c1Cl,-0.45,0.15
COc1cccc(-c2noc(C3CCCN(S(=O)(=O)c4ccccc4F)C3)n2)c1 (configuration not stated),-0.6,nt
COCCOC(=O)C1=C(N)Oc2c(c(=O)oc3ccccc23)C12C(=O)Nc1ccccc12 (configuration not stated),nt,-1.1
CCOC(=O)c1nn(-c2ccccc2)c(=O)cc1OCC(=O)NCc1ccc2c(c1)OCO2,0.75,nt
Cn1cc(NC(=O)NCC2COc3ccccc3O2)c2ccccc2c1=O (configuration not stated),-0.8,35
CC1(C)CC(=O)c2cc(OCC(=O)N3CCN(Cc4ccccc4)CC3)ccc2O1,-0.5,-0.17
CC(=O)Nc1c(OC(C)=O)c2ccccc2oc1=O,-0.1,38
O=c1[nH]cnc2onc(-c3ccc(F)cc3)c12,0.6,0.005
COc1ccc2c(C)nc(NC3=NC(c4ccccc4)CC(=O)N3)nc2c1 (configuration not stated),-0.1,nt
Cc1onc(-c2c(Cl)cccc2Cl)c1-c1nc2cccc(F)c2c(=O)o1,nt,-0.66
Cc1cc(=O)n(CC(=O)NC(C)C)c2c1c(C)nn2-c1ccccc1,0.8,0.4
Nc1nc2ccc(SC(F)F)cc2s1,-1.3,nt
O=C(COC(=O)c1ccccc1C(F)(F)F)Nc1c(F)cccc1F,-1,nt
COc1cc(OC)cc(C(=O)N(C)Cc2cccnc2)c1,nt,0.71
CC[C@H](CO)NC(=O)[C@@H]1C=C2c3cccc4[nH]cc(c34)C[C@H]2N(C)C1,nt,-0.25
Cc1ccc(NC(=O)C23CCC(C)(C(=O)C2)C3(C)C)cc1 (configuration not stated),0.4,0.07
COc1nnc(-c2ccc(N3CCOCC3)c(NS(=O)(=O)c3ccc(C)cc3)c2)c2ccccc12,0.1,-0.43
CCOc1cc(-c2nc3sc4c(c3c(=O)[nH]2)CCCC4)ccc1OCCOc1cc(C)cc(CC)c1,nt,0.24
O=C(NNC(=S)Nc1cccc(Cl)c1)c1ccncc1,nt,-1.2
COc1cccc(C(=O)OC2CC(C)N(C)CC2C)c1 (configuration not stated),0.3,-0.15
Cc1ccc2c(c1)sc(=NC(=O)CN1C(=O)c3ccccc3C1=O)n2C,-0.35,nt
Cc1cc(C)c(S(=O)(=O)c2ccccc2C)c(SCC(C)C)n1,nt,0.15
Cc1cccc(C)c1NC(=O)N1C2CCC1CC(O)(c1cccnc1)C2 (configuration not stated),0.15,nt
O=C1C2C(C(=O)N1c1ccccc1)C1CSCN1C2/C=C/c1ccccc1 (configuration not stated),nt,0.48
Cn1nc(-c2ccc(S(N)(=O)=O)s2)cc1C(F)(F)F,-0.6,-0.46
Cc1ccc(-c2nnc(SCc3csc(-c4ccccc4)n3)n2N)cc1,-0.75,nt
Cc1ccc(NNC(=O)c2cc(C)on2)c(C)c1,1.4,-0.005
CC(C)(C)C(=O)N1CCC(c2nnc(-c3ccccc3)o2)CC1,nt,0.12
COc1ccc(-c2cc(-c3ccccc3)c(C#N)c(SCS(=O)Cc3ccccc3)n2)cc1 (configuration not stated),0.1,1.5
Cc1cc(-c2onc(C)c2C(=O)O)no1,-0.65,-0.36
Cc1[nH]n(-c2nc(-c3ccccc3)cs2)c(=O)c1N=Nc1ccc(O)cc1,1.6,nt
CC(C)Cn1c(=O)c2sccc2n2c(CCCC(=O)N(C)Cc3ccco3)nnc12,-0.15,0.56
COc1ccc(N=C2C(=O)N3c4c(cc(C)cc42)C(C)=CC3(C)C)cc1,0.45,1.6
Nc1nc(C(=O)N2CCOCC2)nn1S(=O)(=O)c1ccccc1,-0.1,-0.12
CN(c1ccc(Cl)cc1)S(=O)(=O)c1ccc2[nH]cc(C(=O)NCCN3CCOCC3)c(=O)c2c1,nt,5.4

# Entries from the list above containing a furan ring, fused or not, in the order listed:
SMILES,AID504770,Ba CapD inh
S=c1[nH]nc(-c2ccco2)n1Cc1ccccc1,0.25,9
CC(C)Cn1c(=O)c2sccc2n2c(CCCC(=O)N(C)Cc3ccco3)nnc12,-0.15,0.56

# The main list resumes, repeating the four entries before the break.
SMILES,AID504770,Ba CapD inh
CC(C)Cn1c(=O)c2sccc2n2c(CCCC(=O)N(C)Cc3ccco3)nnc12,-0.15,0.56
COc1ccc(N=C2C(=O)N3c4c(cc(C)cc42)C(C)=CC3(C)C)cc1,0.45,1.6
Nc1nc(C(=O)N2CCOCC2)nn1S(=O)(=O)c1ccccc1,-0.1,-0.12
CN(c1ccc(Cl)cc1)S(=O)(=O)c1ccc2[nH]cc(C(=O)NCCN3CCOCC3)c(=O)c2c1,nt,5.4
Cc1cc(C)c(C=C2C(=O)OC(C)(C)OC2=O)[nH]1,-0.75,-4.1
CCOc1ccc2[nH]c3nc(=S)[nH]nc3c2c1,-0.7,0.035
CCOc1ccc2c(=O)c(Oc3ccccc3Br)coc2c1,0.8,2.1
CC(c1ccccc1)n1cnc2ccccc21 (configuration not stated),0.4,0.09
CS(=O)(=O)Nc1ccc(C2=NN(S(C)(=O)=O)C(c3ccccc3F)C2)cc1 (configuration not stated),1.6,-0.92
O=C1CSC(=O)N1CCS(=O)(=O)c1ccc(Cl)cc1,nt,0
NC(=O)c1c(NC(=O)CCN2C(=O)S/C(=C\c3cccs3)C2=O)sc2c1CCC2,0.1,nt
COc1ccc(-c2noc(N(C)CC(=O)Nc3cccc(OC)c3)n2)cc1,-0.7,0.28
O=C(NC(CO)CCO)c1ccccc1 (configuration not stated),-0.85,nt
N#CC(C#N)=Cc1ccc(OCC(O)Cn2c3ccccc3c3ccccc32)cc1 (configuration not stated),-0.15,nt
O=C(CCCC(=O)c1ccccc1)Nc1ccc(Cl)cn1,-0.4,4.1
COC(=O)COc1ccc2oc(=O)cc(-c3cc4ccccc4o3)c2c1,0.35,nt
Cc1ccc(OCCCC(=O)N2CCOCC2)cc1,-0.55,-0.38
O=C1CCNCCN1,nt,0.62
CN=C(c1ccccc1)N1CCN(c2ccc(OC)cc2)CC1,-0.05,nt
Cc1ccc(CC(=O)OCC(=O)Nc2c(C#N)c(C)c(C)n2Cc2ccco2)cc1C,0,nt
CCc1ccccc1-n1c(SCc2cc(=O)n3ccccc3n2)nc2[nH]ncc2c1=O,0.15,0.04
c1cncc(-c2nc3ccc4ccccc4c3c3c2CCCC3)c1,-0.5,0.03
COc1ccc(C2=CC(=O)N(Nc3ncc(C(F)(F)F)cc3Cl)C2=O)cc1,nt,-0.08
COc1ccc(N2CCC(CNS(=O)(=O)c3cccc(C(F)(F)F)c3)C2)cc1 (configuration not stated),-0.3,0.67
CC1CCCCN1CCCNC(=O)Cn1cccc1C(=O)c1ccccc1 (configuration not stated),-1.7,-0.33
CCOc1ccc(NCN2C(=O)c3ccccc3C2=O)cc1,nt,-0.65
O=c1cccc2n1CC1CC2CN(Cc2nnc(-c3ccc4c(c3)OCO4)o2)C1 (configuration not stated),-0.5,0.7
CC1SC2(CCCCC2)NC1=O (configuration not stated),-0.05,0.37
Cc1ccc(-n2c3c(cc(C(=O)NC4CCSC4=O)c2=O)C(=O)CCC3)cc1 (configuration not stated),-0.5,-0.91
O=C(Oc1c(Cl)cc(Cl)c2cccnc12)c1cccs1,nt,0.34
Cc1ccc(S(=O)(=O)N2C(=O)/C(=C3\SC(=S)N(Cc4ccco4)C3=O)c3ccccc32)cc1,nt,0.22
Cc1nc(CC(=O)N/N=C/c2ccc(OCC(=O)O)cc2)cs1,-1,nt
Cc1onc(-c2ccccc2)c1CNC(=O)C1CCCCC1,-0.4,0.6
COc1ccccc1OCCCn1cc(/C=C2/C(=N)N3C=CSC3=NC2=O)c2ccccc21,0.9,-0.26

# Structures shown so far that contain a tert-butyl group (2):
SMILES,AID504770,Ba CapD inh
CCCc1cc(C(=O)Nc2sc3c(c2C#N)CCC(C(C)(C)C)C3)no1 (configuration not stated),1.1,0.62
CC(C)(C)C(=O)N1CCC(c2nnc(-c3ccccc3)o2)CC1,nt,0.12

# Remaining list, next part:
SMILES,AID504770,Ba CapD inh
CN(C)CCN1C(=O)C(O)=C(C(=O)c2ccco2)C1c1ccco1 (configuration not stated),-0.15,nt
CCCc1c(O)ccc2c(=O)cc(C(=O)OC)sc12,nt,-0.91
CCOC(=O)C1=C(N)Oc2cc(O)ccc2C12C(=O)N1c3c(cccc32)C(C)CC1(C)C (configuration not stated),0.2,0.4
Clc1ccc(CNc2nnc(Cc3ccccc3)c3ccccc23)cc1,nt,-0.59
CCCCC1CCC(C(=O)Nc2noc3ccccc23)CC1 (configuration not stated),0.85,0.56
CCn1c(SC(=O)NC2CCCCC2)nnc1-c1cccs1,1.2,nt
COCc1cc(=O)[nH]c(SCC2CC2)n1,nt,0.23
CC1CN(Cc2ccc(C#N)cc2Cl)CC(C)O1 (configuration not stated),-0.65,-0.035
O=c1/c(=C/c2cccnc2)sc2n1CN(c1ccccc1)CN=2,-0.6,-0.16
CC(=O)c1nnn(-c2ccc(Cl)c(Cl)c2)c1C,nt,0.31
COc1ccc(-n2c(=S)[nH]c3cc(C(=O)NCCc4ccc(OC)c(OC)c4)ccc3c2=O)cc1,nt,-0.21
COc1ccccc1C(=O)N/N=C/c1ccc(OC)c(C)c1OC,nt,0.035
CSc1ncc(C(=O)N2CCN(Cc3ccccc3)CC2)c(-c2ccccc2)n1,2.1,-1.3
CC(=O)NC1CCN(S(=O)(=O)c2cccs2)C1 (configuration not stated),nt,0.46
O=C1CCC(C(=O)OC2CCOC2=O)=NN1 (configuration not stated),0.15,nt
CC1=CCC2C(=O)N(c3cccc(C(=O)OCC(=O)c4ccc(Cl)cc4)c3)C(=O)C2C1 (configuration not stated),nt,-0.54
CN(C)S(=O)(=O)Oc1ccc(C(=O)Nc2ccc(Cl)cc2)cc1Cl,nt,-0.42
Cc1nn(-c2cccc(Cl)c2)c2c1C(=O)C1C(=O)CCCC1N2 (configuration not stated),-0.15,2.2
CC1(C)CC2(C=CC(=O)CC2)CCO1 (configuration not stated),-0.85,nt
O=c1[nH]cnc2cc(F)ccc12,-0.85,nt
NC(=O)C1CCN(CCO)CC1,1.1,0.065
COCCN(Cc1ccccc1)C(=O)c1ccc2c(c1)NC(=O)CS2,0.1,nt
COc1ccc(CCn2c(-c3ccc(C4CCCCC4)cc3)csc2=Nc2cccc(C(F)(F)F)c2)cc1,nt,-0.15
Cc1cc(Cl)ccc1NC(=O)CC(C)CC(=O)O (configuration not stated),-0.35,0.32
O=C(O)C1CC(=O)N(Cc2ccco2)C1 (configuration not stated),nt,0.61
O=C(/C=C/c1ccccc1)NCCCN1CCOCC1,-0.1,0.36
N/C(CC(=O)Nc1ccc(Cl)cc1)=N/O,0.55,0.4
COc1ccccc1-n1c(CNC(=O)c2ccc(S(=O)(=O)N(C)C)cc2)nnc1SCC(=O)Nc1ccc(F)cc1,nt,-0.3
COC(=O)c1c(C)[nH]c(C(=O)COC(=O)C23CC4CC(CC(NC(C)=O)(C4)C2)C3)c1C,1.4,nt
CN1CCc2cccc3c2C1Cc1ccc(O)c(O)c1-3 (configuration not stated),0.25,0.35
CC1(C)COC(c2cccc(C#N)c2)OC1,-0.6,nt
COCC(C)n1c(SCc2nnc(-c3ccccc3)o2)nc2ccccc2c1=O (configuration not stated),1,nt
COc1ccc(CC2(C)NC(=O)NC2=O)cc1OC (configuration not stated),-1.9,nt
CC(C)CC(NS(=O)(=O)c1cccc2nonc12)C(=O)NNC(=O)OCc1ccccc1 (configuration not stated),nt,-1.1
COc1ccc(CC(C(=O)O)C(=O)O)cc1OC,-0.55,0.6
CC(Oc1cccc(Cl)c1)C(=O)NCc1ccc2c(c1)OCO2 (configuration not stated),-0.25,-0.87
CC1C2CC(C(S(=O)(=O)N3CCOCC3)/C2=N/O)C1(C)C (configuration not stated),0.1,0.52
COc1ccc(/C=N/NC(=O)CC#N)cc1OC,nt,0.21
COc1cc(Br)c(CN2CCCC(COC(=O)NCC(C)(C)CN(C)C)C2)cc1OC (configuration not stated),nt,0.065
Cc1ccc(C)n1CCN1CCNCC1,-0.6,0.96

# Profiles, looked up by structure. Order of screens: AID504770 | Ba CapD inh
# O=C(Oc1c(Cl)cc(Cl)c2cccnc12)c1cccs1 reads nt | 0.34
# COCCN(Cc1ccccc1)C(=O)c1ccc2c(c1)NC(=O)CS2 reads 0.1 | nt
# COc1ccc(N=C2C(=O)N3c4c(cc(C)cc42)C(C)=CC3(C)C)cc1 reads 0.45 | 1.6
# CC1CN(Cc2ccc(C#N)cc2Cl)CC(C)O1 (configuration not stated) reads -0.65 | -0.035
# O=c1[nH]cnc2cc(F)ccc12 reads -0.85 | nt
